Bioassay records (PubChem BioAssay)
Calb FLC – C. albicans growth inhibition with fluconazole, primary screen, CaCi-2 strain, Alamar Blue fluorescence. C. albicans CaCi-2 (fluconazole-resistant clinical isolate) + fluconazole, 48 h. growth inhibition, % (no concentration beside the values). 300,000 compounds, 0.57% hits;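 active means most replicates above 75%; inconclusive means exactly half above 75%; inactive means most below 75%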;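 further: all wells also contain fluconazole at 8 µg/ml as a sub-toxic cotreatment; 0% = median of DMSO wells and 100% = median of geldanamycin control wells; wells of about 8 µL received 7.5 nL stock; the first replicate is given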
AF4-AF9 inh – inhibitors of AF4 peptide binding to AF9, primary screen, biochemical, AlphaScreen, biotin-AF4 peptide, FLAG-AF9, single point. Protein AF-9 (Homo sapiens), P42568. inhibition, % at 10 µM. 350,000 compounds, 0.47% hits;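 active means every replicate reaching a set inhibition limit, whatever the replicate mean, cut at about 25% in these data; inconclusive means mean inhibition reaches that limit but some replicates miss it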;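 further: 0% = plate neutral control median and 100% = total signal loss; the record names both 10 and 1 µM as test concentration; the first replicate is given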
Target sequence (P42568 whole entry, looked up): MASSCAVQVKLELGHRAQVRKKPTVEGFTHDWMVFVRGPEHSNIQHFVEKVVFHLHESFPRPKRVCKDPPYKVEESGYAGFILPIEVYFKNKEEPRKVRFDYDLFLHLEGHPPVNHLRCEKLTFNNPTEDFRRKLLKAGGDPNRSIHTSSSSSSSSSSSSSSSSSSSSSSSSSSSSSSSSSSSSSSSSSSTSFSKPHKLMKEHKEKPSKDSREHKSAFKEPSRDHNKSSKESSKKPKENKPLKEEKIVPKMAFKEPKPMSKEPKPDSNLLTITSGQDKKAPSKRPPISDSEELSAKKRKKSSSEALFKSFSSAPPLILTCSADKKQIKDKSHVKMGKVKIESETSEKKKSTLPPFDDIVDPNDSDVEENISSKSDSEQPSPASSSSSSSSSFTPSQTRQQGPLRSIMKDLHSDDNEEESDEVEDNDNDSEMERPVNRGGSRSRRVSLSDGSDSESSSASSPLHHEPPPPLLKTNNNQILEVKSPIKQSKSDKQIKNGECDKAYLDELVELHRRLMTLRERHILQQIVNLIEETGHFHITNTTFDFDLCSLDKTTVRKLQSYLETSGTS
RanGTP-Imp inh – inhibitors of RanGTP-importin-beta interaction, primary screen, biochemical, FRET, CFP-Ran, YFP-importin-beta, homogeneous | inhibition, % (test concentration not listed) | Ran GTPase (GTP-bound) - importin-beta complex | 300,000 compounds, 1.1% hits | cell-free CFP-Ran/YFP-importin-beta FRET ratio;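 active means most replicates above 15%; inconclusive means exactly half above 15%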;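 further: 0% = DMSO wells and 100% = Ran loaded with GDP instead of GTP; wells of about 40 µL received 100 nL stock; the first replicate is given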
Ecoli rRNA inh – reduced GFP signal of wild-type E. coli, primary screen, bacterial rRNA inhibitor project, GFP/RFP fluorescence, OD600, single point. E. coli WT GFP vs humanized-ribosome RFP mutants, 24 h; active compounds read low; DMSO median 0, no signal -100. GFP signal change (wild-type ribosome), % (concentration not given with the values). 350,000 compounds, 1.6% hits. AID 720706, 2013;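 active means significant combined selectivity score with lowered wild-type GFP, culture density cut under 30%, mutant RFP and density less affected; inactive means any of these conditions unmet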; further: one replicate is shown; some compounds called inactive have numbers as strong as hits
Beta cell apopt – inhibitors of cytokine-induced beta cell apoptosis, primary screen, luminescence | INS-1E cytokine-induced death, ATP luminescence, 48 h; percent of positive-control rescue, neutral wells zero | protection from apoptosis, % (concentration not given with the values) | 300,000 compounds, 0.8% hits | AID 435005, 2010;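 active means all replicates at 75% or more, or half of them and the mean; inconclusive means half reach 75% but not the mean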;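 further: 0% = cytokine-treated negative control wells and 100% = positive control rescue; higher means more ATP so stronger rescue from cytokine killing; wells of about 40 µL received 100 nL stock; the first replicate is given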
ALR H2O2 inh – inhibitors of human ALR sulfhydryl oxidase, primary screen, biochemical, H2O2 detection, HRP-luminol luminescence, single point; FAD-linked sulfhydryl oxidase ALR (Homo sapiens), P55789; purified ALR, DTT oxidation; inhibition, % (no concentration beside the values); 290,000 compounds, 3.8% hits;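 active means mean and each replicate at 75% or more; inconclusive means only one of the two met; inactive means neither met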;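 further: stock transfer was 7.5 nL into about 7.5 µL; 0% = neutral wells and 100% = wells with inactivated enzyme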
Target sequence (P55789 whole entry, looked up): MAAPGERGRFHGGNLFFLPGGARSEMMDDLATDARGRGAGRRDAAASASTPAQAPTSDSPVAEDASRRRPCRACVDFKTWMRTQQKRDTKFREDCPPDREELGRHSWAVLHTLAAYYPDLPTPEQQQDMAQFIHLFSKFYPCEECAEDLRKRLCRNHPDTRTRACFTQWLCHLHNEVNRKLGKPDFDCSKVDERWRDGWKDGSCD
FGF22 binding – binders of human FGF22 protein, primary screen, FGF22 synaptogenesis inhibitor project, biophysical, thermal shift, single point | recombinant FGF22 thermal shift, SYPRO orange fluorescence; percent of sucrose octasulfate shift, DMSO zero | 340,000 compounds, 1.5% hits | calls only at 9.99 µM;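 active means melting point raised past a set limit in the mean and every replicate; inconclusive means no clear call; three in four hits are not shown here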
Target sequence (Q9HCT0 whole entry, looked up): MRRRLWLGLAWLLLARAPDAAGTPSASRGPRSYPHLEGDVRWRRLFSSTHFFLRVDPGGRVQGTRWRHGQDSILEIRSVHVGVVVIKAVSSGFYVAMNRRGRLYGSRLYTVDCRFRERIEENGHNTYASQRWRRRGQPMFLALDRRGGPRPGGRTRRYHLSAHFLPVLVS
T cruzi repl – inhibitors of intracellular T. cruzi growth, primary screen, luminescence, NIH3T3 host cells | inhibition, % (test concentration not listed) | T. cruzi beta-gal in NIH3T3, 90 h | 300,000 compounds, 1.4% hits | AID 1885, 2009;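 active means mean inhibition across valid replicates above about 55%, limit read from the data; inconclusive means mean below that limit but half or more replicates reach it; inactive means mean below it, under half of replicates reach it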;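 further: signal also drops with host cell toxicity which is not excluded here; 0% = plate median of DMSO wells and 100% = zero luminescence signal; higher percent means less beta-gal luminescence so fewer parasites; stock transfer was 50 nL into about 50 µL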
Ecoli rRNA inh OD600 – recorded beside Ecoli rRNA inh, whose call it bears; OD600 change, %; measured here: OD600 growth;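 optical density of the mix in the first replicate; 0 = DMSO median and -100 = no signal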
Ecoli rRNA inh RFP – second read-out of Ecoli rRNA inh, no call of its own (marks repeat the call); RFP signal change, %; measured here: RFP humanized mutant strains;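 first replicate; 0 = DMSO median and -100 = no signal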
The depositor's hits bear a star; i = inactive; ? = inconclusive; · = not tested or not shown.

SMILES | Calb FLC | AF4-AF9 inh | RanGTP-Imp inh | Ecoli rRNA inh | Ecoli rRNA inh OD600 | Ecoli rRNA inh RFP | Beta cell apopt | ALR H2O2 inh | FGF22 binding | T cruzi repl
Cc1c(Cl)cccc1NC(=O)CCC(=O)NNC(=O)c1ccco1 | -6.5 | · | -3.3 | · | · | · | 6.1 | -0.8 | · | -2.4
COc1ccccc1NC(=O)c1cc[n+]([O-])cc1 | -0.1 | 2.6 | 1.5 | 4.4 | 3.7 | -1.7 | 2.4 | -1.7 | i | -25.4
CCn1cc(S(=O)(=O)Nc2cc(F)ccc2C)cn1 | ? | -1.0 | 0.6 | -7.1 | -13.3 | 6.0 | 1.1 | -10.9 | i | 1.7
Cc1ccc2c(c1C)NC(C(=O)O)C1CC=CC21 (stereo not drawn) | 5.4 | 4.6 | -1.1 | -2.0 | 20.1 | -3.2 | 1.7 | -18.1 | · | -8.9
Cc1cc(C)c(OCCNC(=O)c2ccccc2Sc2ccccc2C#N)c(C)c1 | 16.2 | -0.8 | 4.0 | -25.0* | -14.4* | 0.5* | 2.9 | -0.7 | i | 25.0
CCCC(=O)Nc1c(-c2ccccc2)c(=O)c(C)nn1-c1ccc(C)cc1 | -5.0 | -0.6 | -1.5 | 12.4 | 17.5 | -0.5 | 4.3 | -1.8 | i | -13.1
CCOc1ccc(CC(=O)Nc2cccc(-c3ccc4nnc(C)n4n3)c2)cc1 | 7.4 | 2.2 | 2.8 | -34.0* | -24.9* | -0.2* | -1.2 | -12.1 | i | -2.5
O=C(Nc1cc(C(F)(F)F)ccc1N1CCOCC1)C1CCCO1 (stereo not drawn) | · | 1.1 | · | 0.3 | 4.4 | -4.2 | -3.1 | -2.5 | i | ·
O=C(CN1C(=O)C2C3C=CC(C3)C2C1=O)N1CCc2ccccc2C1 (stereo not drawn) | -11.9 | · | -0.6 | · | · | · | -4.0 | · | · | 7.0
Cc1cc(C(=O)NNc2ccc(C(C)C)cc2)n(C(C)(C)C)n1 | 15.4 | · | 2.0 | -15.2 | -13.3 | -1.4 | -2.1 | · | i | 33.0
Cc1occc1-c1nnc(SCC(=O)NC2CC2)n1C | 5.7 | -0.8 | 0.7 | 2.1 | 10.6 | -0.1 | -0.2 | -2.1 | i | -3.5
Cc1ccc(C(=O)Nc2ccc(N3CCN(C(=O)c4ccco4)CC3)cc2)c(Cl)c1 | -3.8 | 1.5 | 1.2 | -2.5 | 6.1 | 1.9 | 2.4 | -5.6 | i | 2.8
CC1CCCC(NC(=O)COC(=O)c2n[nH]c3ccccc23)C1C (stereo not drawn) | · | 0.7 | · | -1.2 | -3.1 | 7.3 | -1.9 | 0.8 | i | ·
CC(=O)Nc1ccc(NC(=O)CSc2nncn2C)cc1 | 9.8 | -3.1 | 2.3 | 17.4 | 7.8 | -2.1 | -5.2 | -1.2 | i | -9.1
O=C1CSC(c2ccccc2)N1CC(O)c1ccc([N+](=O)[O-])cc1 (stereo not drawn) | -2.0 | 0.6 | -2.4 | 3.8 | 1.9 | 0.9 | -2.0 | -18.0 | i | 1.2
O=C(COc1ccc(Cl)cc1Cl)OCn1nnc2ccccc2c1=O | 4.1 | · | -1.9 | · | · | · | -0.7 | -2.3 | · | -3.7
COc1ccc(NC(=O)CSc2nc3c(c(=O)n(C)c(=O)n3C)n2C)c(OC)c1 | -3.4 | -0.6 | 1.3 | 1.1 | -4.2 | -3.4 | 1.0 | 3.0 | i | -0.2
O=C1[C@@H]2CSCN2C(=O)CN1Cc1ccc(F)cc1 | 24.2 | -8.7 | 1.5 | 3.8 | 8.2 | -2.3 | -5.6 | -4.7 | i | 1.1
CN1C(=O)C2(c3ccccc31)N(C)CC(c1ccccc1)C21SC(=S)N(Cc2ccco2)C1=O (stereo not drawn) | 14.0 | · | -1.7 | · | · | · | 9.3 | -4.2 | · | 29.8
COc1cc(C2C3=C(CC(c4ccco4)CC3=O)Nc3ccccc3N2C(C)=O)cc(OC)c1OC (stereo not drawn) | 7.7 | · | -0.1 | · | · | · | -3.7 | -6.8 | · | -1.8
Cc1cc(C)c2c(-n3cccc3)c(C(=O)NNS(=O)(=O)c3ccc(Cl)cc3)sc2n1 | 20.7 | · | -1.3 | · | · | · | -1.1 | · | · | 11.3
COc1cc2nc(NC(=O)c3ccccc3)[nH]c(=O)c2cc1OC | -9.3 | · | -5.5 | · | · | · | -3.3 | -0.7 | · | 5.4
Cc1cccc(C(=O)NN(C)c2nc(-c3ccccc3)nnc2C(F)(F)F)c1 | -6.6 | · | 0.5 | · | · | · | 3.2 | 44.0 | · | -19.2
CCCc1cc(=O)oc2cc(C)cc(OCC(=O)NCCCN3CCCC3=O)c12 | -3.2 | 1.1 | -0.3 | 3.2 | 6.9 | -4.7 | 5.2 | -2.3 | i | -19.7
CCn1ncc([C@@H]2C[C@H]3CN(Cc4ccccc4C)C(=O)[C@]34CCCN24)c1C | 0.3 | 1.0 | -2.5 | 8.3 | 9.0 | -0.6 | -7.7 | -4.5 | i | -2.9
CCn1nnnc1SCC(=O)Nc1cc(C)on1 | -2.2 | · | ? | · | · | · | -7.4 | 0.9 | · | -5.7
Cc1cc(C)n(-c2nc3ccccc3c(=O)n2OCc2ccc(Cl)cc2)n1 | 10.6 | · | 3.6 | · | · | · | -5.6 | -8.3 | · | -6.5
c1ccc(CCCc2nc(-c3ccccn3)no2)cc1 | 12.6 | · | -1.2 | · | · | · | -1.2 | 1.5 | · | -2.9
CC1CCCN(C(=O)CN(c2ccccc2)S(=O)(=O)c2ccc(F)cc2)C1 (stereo not drawn) | · | -0.5 | · | · | · | · | -2.3 | -7.3 | i | ·
Clc1ccc2c(NCc3ccccn3)ccnc2c1 | -5.3 | 3.3 | -1.0 | 21.3 | 26.2 | 1.2 | 3.6 | -4.8 | i | -7.9
CCc1ccc(Oc2ncnc(N)c2[N+](=O)[O-])cc1 | 1.3 | 0.3 | 2.2 | 11.3 | 12.1 | 1.7 | -2.7 | 8.0 | i | -4.3
CCOc1ccc(NC(C(=O)Nc2cccc(C(C)=O)c2)c2ccccc2)cc1 (stereo not drawn) | -1.5 | -13.5 | -2.6 | 5.2 | 3.4 | -1.3 | -2.6 | · | i | 13.3
CC1Cc2cc(S(=O)(=O)N3CCN(c4ccccc4)CC3)ccc2N1C(=O)C1CC1 (stereo not drawn) | 4.3 | 3.0 | 1.8 | 5.4 | 7.6 | -1.2 | -9.2 | 1.9 | i | 15.7
COC(=O)N1C(=O)[C@@](c2ccccc2)(C(C)C)N1C(=O)OC | 1.1 | · | 1.3 | · | · | · | -0.3 | · | · | -11.7
Cc1nnsc1C(=O)Nc1ccc(S(=O)(=O)N2CCC(C)CC2)cc1 | 0.9 | 0.7 | 4.1 | 3.2 | -1.3 | 2.3 | 4.4 | -0.7 | i | -36.2
COc1ccc(NC(=O)COC(=O)/C=C/c2ccc(OC)c(S(=O)(=O)N3CCOCC3)c2)cc1 | ? | · | -2.0 | · | · | · | -1.7 | -7.5 | · | 0.9
Cc1ccc(S(=O)(=O)N2CCN(C(=O)COC(=O)c3ccc(C(C)(C)C)cc3)CC2)c(C)c1 | -3.6 | 2.0 | 3.1 | 6.3 | -7.2 | 6.8 | · | -20.3 | i | 20.5
Cc1cc2nc(-c3ccc[nH]c3=O)n(Cc3ccccc3F)c2cc1C | -5.5 | 1.6 | ? | 4.3 | -8.0 | -2.0 | -0.4 | 1.9 | i | 2.7
O=C(CCNC(=O)c1ccco1)Nc1ccc(F)c(Cl)c1 | 1.7 | -0.7 | 4.0 | -0.6 | -2.6 | 1.3 | -0.5 | -2.0 | i | 11.0
C=CCN(C(=O)c1csnn1)C(C(=O)NCc1ccc(F)cc1)c1ccc(F)cc1 (stereo not drawn) | 2.7 | -1.2 | -2.9 | -3.3 | -9.9 | -2.7 | 22.2 | -2.5 | i | 11.2
CCOC(=O)C(=NCC1CCCO1)NNc1ccccc1Cl (stereo not drawn) | 4.8 | 4.4 | -4.9 | 5.5 | -1.6 | -4.2 | -0.3 | 1.7 | i | -2.7
O=C(CSc1nc2ccsc2c(=O)n1CC1CCC(C(=O)O)CC1)NCCc1ccc(Cl)cc1 (stereo not drawn) | 33.3 | 2.9 | 3.9 | 0.8 | 10.9 | 0.6 | -4.1 | -5.9 | i | 15.0
COc1cccc(NC(=O)NNC(=O)CN2C(=O)COc3ccccc32)c1 | -8.9 | -0.2 | 1.3 | -5.5 | 2.6 | -0.2 | -6.4 | 13.5 | i | -1.4
COc1ccc(-c2c(C)n([O-])c3c([n+]2=O)CCCC3)cc1 | -9.8 | · | -3.9 | · | · | · | -5.7 | 7.5 | · | -1.3
O=C(CCC(=O)Nc1ccc(Oc2ccccc2)cc1)NCCO | -12.2 | · | 3.9 | · | · | · | -6.7 | -2.7 | · | -11.3
CCN1CCN(C(=S)NC(=O)c2cccs2)CC1 | 3.0 | -2.1 | 1.4 | 1.0 | -2.2 | 0.8 | -2.5 | · | i | -48.8
Cc1cc(C)c(N2C(=O)CCCC2=O)c(Cl)c1 | 3.9 | -1.2 | -1.2 | 14.1 | 3.0 | 2.8 | -4.4 | 0.8 | i | -5.0
O=C1CC[C@H](O)CCN1[C@H](CSc1ccccc1)Cc1ccccc1 | -8.4 | -1.9 | 4.9 | 3.1 | -9.1 | 6.1 | -4.0 | -9.9 | i | -12.4
Oc1ccc(/C=N/N2CCOCC2)c(O)c1O | 26.2 | -13.7 | 2.1 | 21.0 | 15.3 | 16.9 | -8.0 | 98.5* | i | -2.0
O=C(CN1C(=O)NC(Cc2ccccc2)C1=O)Nc1ccccc1OC(F)F (stereo not drawn) | -7.4 | 0.3 | · | 2.4 | 8.4 | 2.5 | -4.0 | -4.4 | i | -7.9
Cc1ccc(S(=O)(=O)Cc2ccc(C(=O)N3CCN(c4cc(C)ccc4C)CC3)o2)cc1 | -0.6 | · | 2.8 | · | · | · | 6.5 | -32.4 | · | 6.8
COc1cc(C(=O)NCCC(C)C)c([N+](=O)[O-])cc1OC | 2.3 | · | -1.3 | · | · | · | 2.9 | 47.2 | · | 4.9
Cc1nnn(-c2nonc2N)c1C(=O)NNC(=O)c1ccc(Cl)c(Cl)c1 | 39.2 | -1.3 | -0.9 | -26.1* | -8.7* | 0.2* | -4.6 | -11.7 | i | 27.3

Not all compounds are listed, so the mix of outcomes need not match the whole.
